# A1 apoptosis 2 = blocks A1, raising caspase activity | caspase activation, % (concentration not given with the values) | MEF A1-2A-BIM cells, caspase-Glo luminescence, 3 h; percent of clofoctol response, DMSO zero | 24,000 tested, under 10 active | AID 2465; in the data active means caspase activation above about 5.9%;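 further: wells of about 30 µL received 50 nL stock; the first replicate is given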
#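 System: mouse embryonic fibroblasts co-expressing A1 and BIM (A1-2A-BIM), primed for A1 dependence; amount: 2500 cells/well; doses: 50 nL pinned compound; schedule: cells settled overnight, compound exposure 3 h at 37 °C, 5% CO2; detection: Caspase-Glo 3/7 luminescence, 1 h at room temperature; read-out: Caspase-3/7 activation, seen as rise in luminescence signal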
# Active calls of the source: *. These rows are one share of the data, so the mix of outcomes need not match the whole.
smiles	A1 apoptosis 2
C[C@@H]1CN([C@H](C)CO)C(=O)c2cccc(N(C)C)c2O[C@@H]1CN(C)Cc1ccc(-c2ccccc2)cc1	-0.7
COc1ccc(CN(C)C[C@H]2Oc3c(NS(=O)(=O)c4c(C)noc4C)cccc3C(=O)N([C@H](C)CO)C[C@H]2C)cc1	-0.5
CNC[C@@H]1Oc2ccc(NC(=O)Nc3c(C)noc3C)cc2CC(=O)N([C@H](C)CO)C[C@H]1C	-0.5
COc1ccc(NC(=O)Nc2ccc3c(c2)C(=O)N([C@H](C)CO)C[C@@H](C)[C@@H](CN(C)C(=O)NC(C)C)O3)cc1	0.1
C[C@@H]1CCCCO[C@@H](CN(C)C(=O)Nc2ccc(F)cc2)[C@H](C)CN([C@@H](C)CO)C(=O)c2cc(N(C)C)ccc2O1	0.2
COc1ccc(S(=O)(=O)Nc2cccc3c2O[C@H](CN(C)C(=O)Nc2ccc4c(c2)OCO4)[C@H](C)CN([C@@H](C)CO)C3=O)cc1	-0.8
COc1ccc(NC(=O)N(C)C[C@H]2Oc3c(NS(=O)(=O)c4ccc(Cl)cc4)cccc3C(=O)N([C@@H](C)CO)C[C@H]2C)cc1	0.4
COc1ccc(NC(=O)Nc2ccc3c(c2)C(=O)N([C@@H](C)CO)C[C@H](C)[C@@H](CN(C)Cc2ccccc2)OCCCC[C@@H](C)O3)cc1	-0.7
C[C@H]1CN([C@@H](C)CO)C(=O)c2cccc(NC(=O)Nc3ccccc3)c2O[C@H]1CN(C)Cc1ccccc1	-1.6
C[C@H]1CN([C@@H](C)CO)C(=O)c2cc(NC(=O)Cc3cn(C)c4ccccc34)ccc2O[C@H]1CN(C)C(=O)NC1CCCCC1	1.2
C[C@@H]1CN([C@@H](C)CO)C(=O)c2cc(NC(=O)CCN3CCOCC3)ccc2O[C@@H]1CN(C)Cc1ccc(C(=O)O)cc1	0.7
CNC[C@@H]1OCCCC[C@H](C)Oc2ccc(NS(=O)(=O)c3ccc(F)cc3)cc2C(=O)N([C@@H](C)CO)C[C@@H]1C	-0.3
Cc1noc(C)c1NC(=O)Nc1cccc2c1O[C@H](CN(C)S(C)(=O)=O)[C@H](C)CN([C@@H](C)CO)C2=O	0.7
C[C@@H]1CN([C@@H](C)CO)C(=O)c2cccc(NS(=O)(=O)c3ccccc3)c2O[C@@H]1CN(C)Cc1ccc(C(F)(F)F)cc1	0.4
COc1ccc(NC(=O)N(C)C[C@@H]2OCCCC[C@H](C)Oc3ccc(NC(=O)CCC(F)(F)F)cc3C(=O)N([C@H](C)CO)C[C@@H]2C)cc1	-0.2
Cc1ccc(S(=O)(=O)Nc2ccc3c(c2)C(=O)N([C@@H](C)CO)C[C@@H](C)[C@H](CN(C)C(=O)Nc2c(C)noc2C)OCCCC[C@@H](C)O3)cc1	-0.4
C[C@@H]1CCCCO[C@@H](CN(C)C(=O)CCCN(C)C)[C@@H](C)CN([C@@H](C)CO)C(=O)c2cc(NC(=O)c3ccccc3)ccc2O1	-0.7
C[C@H]1CN([C@@H](C)CO)C(=O)Cc2cc(NC(=O)Nc3ccc4c(c3)OCO4)ccc2O[C@H]1CN(C)Cc1ccc(Oc2ccccc2)cc1	-1.8
C[C@H]1CN([C@@H](C)CO)C(=O)CCCn2cc(nn2)CO[C@H]1CN(C)C(=O)c1cc(-c2ccccc2)on1	0.6
COc1ccc(S(=O)(=O)N(C)C[C@H]2Oc3ccc(NC(=O)Nc4ccccc4)cc3CC(=O)N([C@@H](C)CO)C[C@@H]2C)cc1	0.1
COc1ccc(CN(C)C[C@H]2Oc3ccc(NS(=O)(=O)c4ccc(Cl)cc4)cc3CC(=O)N([C@H](C)CO)C[C@H]2C)cc1	-1.1
C[C@@H]1CN([C@H](C)CO)C(=O)c2cc(NC(=O)Cc3cn(C)c4ccccc34)ccc2O[C@@H]1CN(C)C(=O)NC1CCCCC1	0.3
COc1ccc(NC(=O)N(C)C[C@@H]2Oc3ccc(NC(=O)NC(C)C)cc3C(=O)N([C@H](C)CO)C[C@@H]2C)cc1	-1.1
Cc1ccc(S(=O)(=O)N(C)C[C@@H]2OCCCC[C@@H](C)Oc3ccc(NC(=O)Nc4ccc(C(F)(F)F)cc4)cc3C(=O)N([C@@H](C)CO)C[C@@H]2C)cc1	-1.8
C=C[C@H](OC)[C@@H](OC(=O)Nc1ccc(SC)cc1)c1ccc(OCCO)cc1	1.0
C[C@@H]1CCCCO[C@H](CN(C)Cc2ccccc2)[C@H](C)CN([C@H](C)CO)C(=O)c2cc(NC(=O)Nc3cccc4ccccc34)ccc2O1	0.3
Cc1noc(C)c1S(=O)(=O)Nc1ccc2c(c1)CC(=O)N([C@H](C)CO)C[C@@H](C)[C@H](CN(C)C(=O)NC(C)C)O2	-0.9
Cc1noc(C)c1S(=O)(=O)Nc1ccc2c(c1)C(=O)N([C@H](C)CO)C[C@@H](C)[C@H](CN(C)C(=O)NC1CCCCC1)O2	1.4
Cc1ccc(S(=O)(=O)N(C)C[C@@H]2Oc3ccc(NC(=O)NC(C)C)cc3CC(=O)N([C@H](C)CO)C[C@@H]2C)cc1	-1.4
COc1ccc(NC(=O)Nc2ccc3c(c2)C(=O)N([C@H](C)CO)C[C@H](C)[C@@H](CN(C)S(C)(=O)=O)OCCCC[C@@H](C)O3)cc1	-0.3

# Another view of part of the listing above:
> C[C@@H]1CN([C@H](C)CO)C(=O)c2cccc(N(C)C)c2O[C@@H]1CN(C)Cc1ccc(-c2ccccc2)cc1
  A1 apoptosis 2: -0.7

> COc1ccc(CN(C)C[C@H]2Oc3c(NS(=O)(=O)c4c(C)noc4C)cccc3C(=O)N([C@H](C)CO)C[C@H]2C)cc1
  A1 apoptosis 2: -0.5

> CNC[C@@H]1Oc2ccc(NC(=O)Nc3c(C)noc3C)cc2CC(=O)N([C@H](C)CO)C[C@H]1C
  A1 apoptosis 2: -0.5

> COc1ccc(NC(=O)Nc2ccc3c(c2)C(=O)N([C@H](C)CO)C[C@@H](C)[C@@H](CN(C)C(=O)NC(C)C)O3)cc1
  A1 apoptosis 2: 0.1

# (listing goes on)
smiles	A1 apoptosis 2
Cc1noc(C)c1NC(=O)N(C)C[C@@H]1OCc2cnnn2CCCC(=O)N([C@@H](C)CO)C[C@H]1C	-0.6
Cc1noc(C)c1NC(=O)Nc1ccc2c(c1)CC(=O)N([C@@H](C)CO)C[C@H](C)[C@H](CN(C)C(=O)Nc1cccc3ccccc13)O2	-0.5
COc1ccc(NC(=O)N(C)C[C@@H]2Oc3ccc(NC(=O)NC4CCCCC4)cc3C(=O)N([C@H](C)CO)C[C@H]2C)cc1	1.6
Cc1noc(C)c1S(=O)(=O)N(C)C[C@H]1Oc2ccc(NS(C)(=O)=O)cc2CC(=O)N([C@@H](C)CO)C[C@H]1C	-1.3
C[C@H](CO)N1C[C@H](C)[C@H](CN(C)C(=O)NC2CCCCC2)Oc2c(NC(=O)NC3CCCCC3)cccc2C1=O	-0.3
C[C@H](CO)N1C[C@H](C)[C@@H](CN(C)S(=O)(=O)c2cccs2)Oc2ccc(NC(=O)Nc3ccc4c(c3)OCO4)cc2C1=O	-1.3
COc1ccc(NC(=O)N(C)C[C@@H]2Oc3ccc(NC(=O)CCCCCC(=O)Nc4ccccc4N)cc3CC(=O)N([C@@H](C)CO)C[C@@H]2C)cc1	0.1
C[C@@H]1CN([C@@H](C)CO)C(=O)c2cccc(NC(=O)C3CCOCC3)c2O[C@H]1CN(C)Cc1ccncc1	0.1
COC(=O)[C@@]1(CCC(=O)OC(C)(C)C)N=C(c2ccc(OCCCO)cc2)O[C@H]1c1ccccc1CN=[N+]=[N-]	-1.4
C[C@@H]1CN([C@@H](C)CO)C(=O)c2cc(NS(=O)(=O)c3ccccc3)ccc2O[C@@H](C)CCCCO[C@H]1CN(C)Cc1ccncc1	0.7
C[C@H](CO)N1C[C@H](C)[C@@H](CN(C)C(=O)Nc2ccc(F)cc2)Oc2ccc(NS(=O)(=O)c3ccc(Cl)cc3)cc2CC1=O	-1.5
CNC[C@@H]1OCCCC[C@@H](C)Oc2ccc(NS(=O)(=O)c3cn(C)cn3)cc2C(=O)N([C@H](C)CO)C[C@H]1C	0.2
Cc1noc(C)c1NC(=O)N(C)C[C@@H]1Oc2ccc(NS(=O)(=O)c3cccs3)cc2C(=O)N([C@H](C)CO)C[C@H]1C	-0.2
C[C@H](CO)N1C[C@H](C)[C@@H](CN(C)C(=O)NC2CCCCC2)Oc2ccc(NS(=O)(=O)c3ccccc3)cc2C1=O	-0.1
C[C@@H]1CN([C@@H](C)CO)C(=O)c2cccc(NS(=O)(=O)c3ccccc3)c2O[C@@H]1CN(C)C(=O)Nc1ccc(C(F)(F)F)cc1	0.5
C[C@H](CO)N1C[C@H](C)[C@H](CN(C)C(=O)Nc2ccc(F)cc2)Oc2ncc(C#CCN(C)C)cc2C1=O	-1.1
C[C@@H]1CN([C@@H](C)CO)C(=O)CCCn2cc(nn2)CO[C@@H]1CN(C)Cc1ccc(C(=O)O)cc1	0.0
C[C@@H]1CCCCO[C@H](CN(C)C(=O)NC2CCCCC2)[C@@H](C)CN([C@@H](C)CO)C(=O)c2cc(NS(=O)(=O)c3cccs3)ccc2O1	-0.7
C[C@@H]1CCCCO[C@@H](CN(C)Cc2ccc(C(=O)O)cc2)[C@H](C)CN([C@H](C)CO)C(=O)c2cc(NS(C)(=O)=O)ccc2O1	-0.1
Cc1cc(C(=O)Nc2cccc3c2O[C@@H](CN(C)S(=O)(=O)c2ccc(F)cc2)[C@H](C)CN([C@@H](C)CO)C3=O)n(C)n1	0.0
C[C@H]1CCCCO[C@H](CN(C)C(=O)CCC(F)(F)F)[C@@H](C)CN([C@@H](C)CO)C(=O)c2cc(NC(=O)CCC(F)(F)F)ccc2O1	0.0
COc1ccc(CN(C)C[C@H]2Oc3ccc(NC(=O)CCN4CCOCC4)cc3CC(=O)N([C@@H](C)CO)C[C@@H]2C)cc1	-0.1
C[C@H](CO)N1C[C@H](C)[C@@H](CN(C)Cc2ccc(C(=O)O)cc2)Oc2ccc(NC(=O)Cc3cn(C)c4ccccc34)cc2CC1=O	0.9
C[C@H](CO)N1C[C@H](C)[C@H](CN(C)Cc2ccc3c(c2)OCO3)Oc2ccc(NC(=O)Nc3ccc4c(c3)OCO4)cc2CC1=O	1.4
COc1ccc(CN(C)C[C@H]2OCCCC[C@H](C)Oc3ccc(NC(=O)Cc4ccccc4)cc3C(=O)N([C@H](C)CO)C[C@@H]2C)cc1	0.8
C[C@H](CO)N1C[C@H](C)[C@H](CN(C)S(=O)(=O)c2cccs2)Oc2ccc(NC(=O)Cc3ccccc3)cc2C1=O	0.3
O=C(NCc1ccc(F)cc1)[C@H]1C[C@H]2C(=O)N[C@@H](Cc3ccccc3)C(=O)N2[C@H]1c1cccc(OCCO)c1	0.8
C[C@H](CO)N1C[C@H](C)[C@H](CN(C)C)Oc2ccc(NC(=O)C3CC3)cc2C1=O	0.5
C[C@@H]1CN([C@H](C)CO)C(=O)Cc2cc(NS(=O)(=O)c3ccc(F)cc3)ccc2O[C@@H]1CN(C)CC1CC1	-0.3
CNC[C@@H]1Oc2ccc(NC(=O)CCCN(C)C)cc2C(=O)N([C@@H](C)CO)C[C@@H]1C	-0.2

# Fetched by compound from the list above:
smiles	A1 apoptosis 2
C[C@@H]1CN([C@H](C)CO)C(=O)Cc2cc(NS(=O)(=O)c3ccc(F)cc3)ccc2O[C@@H]1CN(C)CC1CC1	-0.3
C[C@@H]1CN([C@@H](C)CO)C(=O)c2cccc(NC(=O)C3CCOCC3)c2O[C@H]1CN(C)Cc1ccncc1	0.1

# Going on with the list:
smiles	A1 apoptosis 2
C[C@H]1CN([C@@H](C)CO)C(=O)c2cc(NC(=O)Nc3ccc4c(c3)OCO4)ccc2O[C@@H]1CN(C)Cc1ccc(-c2ccccc2)cc1	-2.1
CNC[C@H]1Oc2ccc(NC(=O)c3ccncc3)cc2CC(=O)N([C@@H](C)CO)C[C@@H]1C	0.3
COC(=O)CCCCCCC(=O)Nc1ccc(C2OC(CSc3ccccn3)CC(c3ccccc3)O2)cc1 (stereo unspecified)	0.3
Cc1noc(C)c1NC(=O)Nc1ccc2c(c1)C(=O)N([C@@H](C)CO)C[C@@H](C)[C@H](CN(C)S(=O)(=O)c1ccccc1)O2	0.0
C[C@@H]1CN([C@@H](C)CO)C(=O)c2cccc(NS(=O)(=O)c3cn(C)cn3)c2O[C@H]1CN(C)Cc1ccc2c(c1)OCO2	0.2
CC(C)NC(=O)Nc1ccc2c(c1)C(=O)N([C@H](C)CO)C[C@@H](C)[C@@H](CN(C)S(=O)(=O)c1ccc(F)cc1)O2	1.1
CNC[C@H]1Oc2c(NS(=O)(=O)c3cn(C)cn3)cccc2C(=O)N([C@@H](C)CO)C[C@@H]1C	2.0
C[C@@H]1CN([C@@H](C)CO)C(=O)c2cccc(NC(=O)NC3CCCCC3)c2O[C@H]1CN(C)S(C)(=O)=O	-1.5
C[C@@H]1CCCCO[C@@H](CN(C)Cc2ccc(C(F)(F)F)cc2)[C@H](C)CN([C@H](C)CO)C(=O)c2cc(NC(=O)CCC(F)(F)F)ccc2O1	-1.5
C[C@H](CO)N1C[C@H](C)[C@H](CN(C)S(=O)(=O)c2cccs2)Oc2ccc(NS(=O)(=O)c3cccs3)cc2C1=O	0.7
COc1ccc(NC(=O)N(C)C[C@H]2Oc3c(NS(=O)(=O)c4cccs4)cccc3C(=O)N([C@H](C)CO)C[C@@H]2C)cc1	0.2

# Screens from PubChem BioAssay.
